PrP 5UTR inh = inhibition of PrP 5' UTR reporter expression. AID 488862, 2010. cell-based PrP 5' UTR mRNA reporter, plate reader. 0.35% of 340,000 active. inhibition, % (test concentration not listed);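 active means every replicate at 50% or more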;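 further: 0 = median of the neutral control wells; tested in H4 reporter cells; numbers are from one replicate; inactives centre near -14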
Bead autofluor = counter-screen for toxin protease inhibitors: compound fluorescence | fluorescence intensity (test concentration not listed) | 3.1% of 360,000 active | compound autofluorescence counterscreen, microsphere flow cytometry; active compounds read high | AID 624483;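 active means at least 3 SD above the mean of all compounds, about 16000 in these data; inconclusive means too few beads counted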;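 further: 100 nL of 1 mM stock went into each well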
Sa RN4220 lethal = growth inhibition of S. aureus RN4220, primary screen, OD600; 16 h; inhibition, % (test concentration not listed); 0.33% of 330,000 active; AID 1259311, 2017;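 active means z-score of -3 or lower and OD600 up to 0.18 on both plates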;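 further: plate controls were untreated cells for no effect and reference antibiotic for full effect; stock transfer was 100 nL into about 80 µL; one replicate is shown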
BJeLR lethal = MLPCN primary cell-based screen for lethality selective to Ras in HRASV12 cells; BJeLR (HRASV12) viability, CellTiter-Glo ATP luminescence, 48 h; reference of the scale not given here; inhibition, % (test concentration not listed); 0.17% of 300,000 active; AID 1554, 2009;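 active means replicate mean above 50%; inconclusive means above 50% but judged a plate artefact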;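 further: 50 nL library stock added to about 25 µL; numbers are from one replicate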
Mtb hypoxia inh = PubChem AID 1159583; M. tuberculosis hypoxia-regulated fluorescent reporter, fluorescence; fluorescence inhibition, % (test concentration not listed); 0.1% of 300,000 active;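 active means 35 to 45% if threefold the growth effect, above 45% if 1.5-fold the growth effect; inactive means the rest, general growth blockers included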;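 further: wells of about 50 µL received 100 nL stock; 0% = vehicle wells and 100% = reference inhibitor wells; whole bacteria with a GFP reporter of the hypoxia response; strong numbers were not always called active; many hits fall short of the cut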
ugtP null kill = growth inhibition of ugtP-null S. aureus, primary screen, RN4220 ugtP deletion, OD600 | AID 1259309, 2017 | 16 h; some inactives read as strong as hits | growth inhibition, % (test concentration not listed) | 0.54% of 330,000 active;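 active means z-score under -3 and OD600 up to 0.15 on both plates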;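 further: plate controls were untreated wells for no effect and antibiotic for full effect; wells of about 80 µL received 100 nL stock; the first replicate is given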
Mtb hypoxia inh growth = further read-out of Mtb hypoxia inh, marked with its call; growth inhibition, %; measured here: M. tuberculosis growth (absorbance);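 0% = vehicle and 100% = reference antibiotic; read after six days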
An asterisk follows results filed as active; ? = inconclusive; . = not tested or not shown.

SMILES | PrP 5UTR inh | Bead autofluor | Sa RN4220 lethal | BJeLR lethal | Mtb hypoxia inh | Mtb hypoxia inh growth | ugtP null kill
COC(=O)c1cc(C(=O)NNC(=O)c2ccc3c(c2)OCO3)cc([N+](=O)[O-])c1 | -16 | 3000 | 1.0 | . | -1 | 1 | 3
COC(=O)C1C(c2ccccc2)NC(=O)N(CCc2cc(OC)c(OC)c(OC)c2)C1C (stereo unspecified) | . | . | 3.0 | . | 18 | 10 | 4
Cc1onc(-c2ccccc2)c1C(=O)NC(C)C | 2 | 5326 | 0.1 | -3 | . | . | 5
CCCCc1ccc(CC(=O)O)cc1 | -17 | 4272 | 3.2 | 4 | 15 | 7 | 2
COc1ccc(-c2nnc(N3CCCCC3)c3ccccc23)cc1 | -8 | 2464 | -4.1 | 6 | . | . | -12
CC1CCCCN1CCCNC(=O)Cn1c(=O)c2cccn2c2ccccc21 (stereo unspecified) | -3 | ? | 2.0 | -18 | 2 | 2 | 5
CC(=O)c1c(N2CCN(c3ccc(F)cc3)CC2)nc(=S)n(Cc2ccccc2)c1C | -10 | 3894 | 3.4 | 13 | 0 | -7 | 4
Cc1cccc(OCc2nnc(SCC(=O)NCC3CCCO3)n2C)c1 (stereo unspecified) | -12 | 5849 | 5.1 | -6 | 15 | -2 | -9
COc1ccc(-c2cc(N)n(S(=O)(=O)Cc3ccccc3)n2)c(OC)c1 | -2 | 5501 | 5.7 | 2 | 2 | 7 | 6
COc1ccc(CN2CCC(=O)N(C(CO)Cc3ccccc3)CC2)cc1 (stereo unspecified) | . | . | 2.5 | . | -2 | -10 | -3
COc1ccc(OC)c(S(=O)(=O)N2CCCCC2C(=O)O)c1 (stereo unspecified) | -11 | 11675 | 0.3 | -2 | 1 | 3 | -1
O=C(Nc1ccc(Cl)c(S(=O)(=O)N2CCCCC2)c1)c1cccnc1 | . | 4150 | 2.1 | . | 7 | 1 | -9
O=C(NCc1ccccn1)C(=O)NCC1OCCN1S(=O)(=O)c1ccc(Br)cc1 (stereo unspecified) | -23 | 5621 | -3.0 | 5 | -9 | 9 | 0
CC(=O)C1=NN(c2ccccc2)C(c2ccc3c(c2)OCO3)N1c1ccc(N2CCOCC2)cc1 (stereo unspecified) | -7 | 2386 | 2.4 | 0 | 8 | -9 | 14
Cc1ccc(CNC(=O)C2CCCC2)cc1 | -30 | 4137 | 1.2 | -18 | . | . | 8
CSC1=NCCN1C(=O)C(C)(C)Oc1ccc(Cl)cc1 | -8 | 6269 | 0.0 | -2 | . | . | 9
O=C(O)c1n[nH]c2c1CC(C1CCCCC1)CC2 (stereo unspecified) | 5 | 3836 | 6.6 | . | 3 | 7 | 12
CCOc1ccc(NS(=O)(=O)c2ccc(C(=O)NCC(C)(C)N3CCOCC3)cc2)cc1 | -17 | 5089 | -2.6 | -1 | 0 | 3 | 6
C=CCNC(=O)NC(=O)CSc1nc2cc([N+](=O)[O-])ccc2n1-c1cccc(C(F)(F)F)c1 | -32 | 2168 | 3.2 | 0 | 5 | 5 | 3
CCCOC(=O)C1C2C=CC3(CN(c4ccc(Cl)c(F)c4)C(=O)C13)O2 (stereo unspecified) | -15 | 6030 | 1.1 | 4 | . | . | -1
COc1ccc(-n2c(-c3ccccc3)cc3c2CCCC3=O)cc1 | -57 | 22566* | -4.7 | 10 | 2 | -1 | 8
CCN1CCCC1Cn1cnc2c([nH]c3ccc(C)cc32)c1=O (stereo unspecified) | -11 | 5129 | . | -2 | . | . | .
O=C(NCc1ccco1)C(=O)c1cn(CC(=O)N2CCCCC2)c2ccccc12 | -25 | 3963 | 5.3 | . | 9 | 1 | 4
Nn1c(SC/C=C/c2ccccc2)nnc1-c1ccco1 | -17 | 2997 | -3.4 | 13 | -10 | -12 | -2
COCC(C)NS(=O)(=O)c1ccc(OC)cc1 (stereo unspecified) | -3 | 19695* | -1.9 | -8 | 1 | 3 | -4
CCOC(=O)c1cc(C)n(CCc2cnc[nH]2)c1C | -13 | 2216 | 2.3 | -12 | . | . | 7
Cn1c(=O)c2ncn(CC(=O)NCCOc3ccc(C(C)(C)C)cc3)c2n(C)c1=O | -15 | 2768 | 1.7 | 5 | . | . | 6
O=C(c1cc(S(=O)(=O)N2CCN(c3ccccc3)CC2)ccc1Cl)N1CCCC(C(F)(F)F)C1 (stereo unspecified) | -15 | 4958 | -4.3 | 9 | -2 | -12 | -4
Cc1ccc(C2CC=C(C(=O)O)CN2S(=O)(=O)c2ccccc2C)cc1 (stereo unspecified) | . | . | 6.8 | . | 0 | 7 | -8
CCCCN(C(=O)c1[nH]c(C)c(C(C)=O)c1C)c1c(N)n(CCCC)c(=O)[nH]c1=O | -26 | ? | -0.5 | 4 | -7 | 3 | 1
Cc1ccc(S(=O)(=O)N2CCC(C(=O)NN=Cc3ccncc3)CC2)cc1 | . | . | -1.3 | . | 1 | 1 | 7
CCN(CC)S(=O)(=O)c1cccc(-c2nnc(SCC(N)=O)n2C)c1 | -16 | 3405 | 3.2 | -11 | 9 | 9 | 11
Cc1c(-c2nc(N)nc(Nc3ccccc3F)n2)oc2ccccc12 | -34 | 24893* | 17 | . | 1 | 9 | -11
Cc1oc(-c2ccccc2)cc1C(=O)Nc1cccc(/C=C/C(=O)O)c1 | -9 | 3309 | 18 | 3 | 1 | 8 | 2
COc1ccc(C=NNc2nc(N3CCCC3)nc(N3CCCC3)n2)cc1O | . | . | 2.2 | . | 0 | 3 | -1
COc1ccccc1C1=NC(c2ccccc2)CN1c1ccccc1 (stereo unspecified) | -11 | 4175 | -10 | -2 | -1 | 8 | 26
COCCCNS(=O)(=O)c1ccc2[nH]c3c(c2c1)CCCCC3 | -24 | 4027 | 4.2 | 2 | -13 | 4 | 7
O=C(Nc1cccnc1)c1ccc(F)cc1 | -17 | 3884 | 3.3 | -12 | . | . | 6
Cc1onc(-c2ccccc2)c1C(=O)Nc1nnc(-c2ccncc2)s1 | -19 | 8487 | 6.5 | 12 | 10 | -1 | -3
O=C(N/N=C/c1ccccc1OC(=O)c1ccc2c(c1)OCO2)c1ccccc1 | -91 | 2148 | . | 6 | . | . | .
Cc1cc(C(=O)OCC(=O)NC(C)c2ccccc2)c(C)o1 (stereo unspecified) | -24 | 4446 | 1.5 | -7 | 8 | 9 | 3
COc1ccccc1N1CCN(CCN2C(=O)CC3(CCCC3)CC2=O)CC1 | -7 | 5243 | 8.6 | 1 | 0 | -2 | 5
CC(=O)n1cc(/C=N/NC(=O)c2ccc([N+](=O)[O-])cc2)c2ccccc21 | -20 | 3085 | . | 2 | . | . | .
CCOC(=O)C[C@H]1c2ccccc2S(=O)(=O)N1Cc1cccc(C(F)(F)F)c1 | -9 | 3227 | . | 12 | . | . | .
COc1ccccc1NC(=O)CSc1nnc(CNC(=O)c2ccco2)n1C | -14 | 4110 | -2.3 | 4 | 11 | 5 | 6
COc1ccc(C(=O)NNC(=S)Nc2ccccc2)cc1 | -68 | 3351 | 4.6 | -30 | 7 | -1 | 0
O=C(NC1(C(F)(F)F)C(=O)Nc2c1c(=O)[nH]c(=O)n2Cc1ccco1)C1CCCCC1 (stereo unspecified) | -6 | 2922 | 1.4 | 8 | . | . | 1
O=C1OCCN1C(=O)C1C(c2ccc([N+](=O)[O-])cc2)C(c2cccc(Cl)c2)=NN1c1ccccc1 (stereo unspecified) | . | . | -6.8 | . | -4 | 7 | -5
CCC(Oc1ccccc1)C(=O)Nc1ccccc1C(=O)N1CCCCC1 (stereo unspecified) | -15 | 5046 | -0.5 | 8 | 14 | 11 | 6
Cc1cc([N+](=O)[O-])ccc1NCc1ccco1 | -30 | 4396 | 3.5 | 1 | 6 | 2 | 3
CCc1nc2oc3ccccc3c(=O)c2c(=O)n1Cc1ccc(OC)cc1 | -9 | 17068* | 1.0 | 0 | -7 | -6 | -11
COc1ncc(-c2ccc3c(c2)S(=O)(=O)c2cccc(C(=O)NCc4ccco4)c2C3=O)cn1 | -18 | 4269 | 1.8 | . | 8 | 2 | 3
O=C(CNC(=S)N(Cc1ccccc1F)C1CCCCC1)NCCN1CCOCC1 | -1 | 4030 | 0.2 | -7 | 12 | 13 | 6
Cc1cc(-c2ccccc2)[nH]c(=O)c1S(=O)(=O)c1ccccc1 | -22 | 3009 | 5.5 | -1 | 21 | 8 | 9
CCC(CC)C(=O)NCCc1cc2c(C)ccc(C)c2[nH]c1=O | -14 | 6281 | 4.5 | 11 | 2 | 9 | -15
Cc1cc(=O)c2ccc3ccccc3c2[nH]1 | -9 | 4516 | 5.9 | 3 | 1 | 7 | -11
Cc1ccc(-c2nnc(NC(=O)C3=COCCO3)o2)c(C)c1 | -7 | 5381 | 4.0 | -5 | 3 | 0 | 13
O=C(O)COc1ccc(/C=C/c2nc(-c3ccccc3O)n[nH]2)cc1 | -11 | 3832 | 0.9 | -4 | 4 | 2 | 9
Cc1cccc(C)c1NC(=O)N1CCN(C2CCCCC2)CC1 | -13 | 3259 | -6.4 | 10 | 3 | 7 | -7
CCc1ccc(-c2nnn(Cc3nc4ccccc4s3)n2)cc1 | -24 | 22780* | 4.2 | -4 | -3 | -1 | 56

Remaining list, next part:
SMILES | PrP 5UTR inh | Bead autofluor | Sa RN4220 lethal | BJeLR lethal | Mtb hypoxia inh | Mtb hypoxia inh growth | ugtP null kill
Oc1ccc(N=Nc2n[nH]c(-c3ccccc3)n2)cc1 | -92 | 2195 | 6.6 | 9 | 9 | 5 | -11
Cc1ccccc1Oc1ncnc2sccc12 | -24 | 18377* | 1.1 | -4 | 4 | 6 | -5
COc1cccc(-c2nc(CS(=O)CC(=O)NC3CCCC3)c(C)o2)c1 (stereo unspecified) | -22 | 5826 | 16 | -13 | -5 | 0 | 6
COC(=O)C1C(=O)C2=C(CC1C)NC(=O)CC2c1cccc(C)c1 (stereo unspecified) | -25 | 2594 | 3.8 | 3 | . | . | -5
CSc1cccc(NC(=O)COC(=O)c2ccccn2)c1 | -18 | 4278 | -0.1 | . | 8 | 11 | 4
COc1ccc(/C=C(\NC(=O)c2ccccc2)C(=O)NNC(=O)CCN2CCOCC2)cc1 | -40 | 4601 | 8.8 | 4 | 1 | -2 | 1
O=C(Nc1ccccc1)N(c1ccccc1)C1C=CS(=O)(=O)C1 (stereo unspecified) | . | 4412 | 2.2 | 4 | 22 | 13 | 7
CC12CCC(C(=O)N(c3ccccn3)c3ccccn3)(OC1=O)C2(C)C (stereo unspecified) | -21 | 2786 | 0.2 | 11 | . | . | 5
CC(=O)Nc1cc(Cl)ccc1OS(=O)(=O)c1ccc(C)cc1 | -14 | 2507 | 13 | -11 | 9 | 2 | 3
Cc1cc(N(C)Cc2ccccc2)nc(-c2ccccc2)n1 | -19 | 4322 | -0.3 | -4 | 5 | 6 | 13
O=C(CSc1nc2ccccc2c(=O)[nH]1)Nc1ccc([N+](=O)[O-])cc1 | -5 | 3731 | 2.0 | . | -12 | 1 | -8
Cc1cc(C)cc(NC(=O)CCc2nc3sc4c(c3c(=O)[nH]2)CCCC4)c1 | -13 | 5181 | 1.4 | 3 | 2 | 1 | 4
CCOC(=O)c1cc(NC(=O)CNCC(c2ccccc2)N(C)C)cc(C(=O)OCC)c1 (stereo unspecified) | -44 | 3907 | -1.3 | -6 | 7 | 6 | 14
CCn1c(COc2ccccc2C)nnc1SCC(=O)N1CCC(C)CC1 | -18 | 8181 | 5.1 | -2 | 4 | -2 | 0
